Source: PubChem BioAssay (Southern Research Institute)
total CFTR – compounds raising F508del-CFTR protein level – cell-based, HeLa F508del-CFTR, immunofluorescence, viability, primary screen (AID 1224863) | calls, or highest fold increase where a dose series was run | hit rate 0.1% among 10,000 | HeLa F508del-CFTR, immunofluorescence total CFTR, 24 h; by the record results were divided by relative cell number; some inactives read as strong as hits; in the data nearly all actives have a first-pass fold increase above 1.5; a few of its hits are not listed in these tables;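 further: total CFTR protein by anti-CFTR immunofluorescence in fixed cells; first pass at 25 µM or 10 µg/mL by library and series up to twice that; 1 = untreated cells; first-pass hits also needed half or more of the cells alive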
total CFTR fold 25 µM – further read-out of total CFTR, marked with its call; fold increase; measured here: primary screen single dose 25 uM; library dosed in µM
total CFTR fold 10 ug/mL – further read-out of total CFTR, marked with its call; fold increase; measured here: primary screen 10 ug/mL
total CFTR viability 25 µM – also measured in total CFTR; calls as there; viability, %; measured here: primary viability 25 uM; library dosed in µM;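 0% = killed and 100% = untreated cells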
total CFTR viability 10 ug/mL – further read-out of total CFTR, marked with its call; viability, %; measured here: primary viability 10 ug/mL;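 0% = killed and 100% = untreated cells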
* = called active by the depositor; i = inactive; / = no result given; & = joins results of further samples. An excerpt. The share of hits here may be higher or lower than overall.

SMILES	total CFTR	total CFTR fold 10 ug/mL	total CFTR viability 10 ug/mL	others
COc1ccc(OCc2cc(C)ccc2OC)c([N+](=O)[O-])c1	i	1.03	94.0
CCN(Cc1ccc(Cl)s1)CN1C(=O)NC2(CCCCC2C)C1=O (centres undefined)	i	1.17	101.0
O=C(O)CCn1cc(Br)ccc1=O	i	0.88	68.0
CS(=O)(=O)Nc1ccsc1C(=O)O	i	1.02	103.0
Nc1ccc(S(=O)(=O)Nc2ccccn2)cc1	i	/	/	total CFTR fold 25 µM=1.01;total CFTR viability 25 µM=92.0
N#Cc1cc([N+](=O)[O-])ccc1Nc1ccc(OC(F)F)cc1	i	1.28	99.0
CCN(Cc1cccc(C)c1)CN1C(=O)NC(c2ccccc2)(c2ccccc2)C1=O	i	0.97	90.0
Cc1c2c(nc3c1oc1ccccc13)CCCCCCCCCC2	i	1.08	104.0
c1ccc2c(c1)CCCC2C1=NCCN1 (centres undefined)	i	/	/	total CFTR fold 25 µM=1.01;total CFTR viability 25 µM=79.0
Cc1cc(S(=O)(=O)NC(c2ccc(F)cc2)c2cccs2)c(C)s1 (centres undefined)	i	0.83	75.0
O=c1[nH]cnc2cc(NCCCOCC3CCCO3)c([N+](=O)[O-])cc12 (centres undefined)	i	0.95	90.0
COc1ccccc1-c1nnc(SCc2cc(-c3ccccc3)on2)o1	i	1.01	100.0
C[C@@H]1CC2C3CCC4=CC(=O)C=C[C@]4(C)[C@@]3(F)[C@@H](O)C[C@]2(C)[C@H]1C(=O)CO (some centres undefined)	i	/	/	total CFTR fold 25 µM=1.15;total CFTR viability 25 µM=88.0
O=C(/C=C/C=C/c1ccc2c(c1)OCO2)N1CCCCC1	i	/	/	total CFTR fold 25 µM=0.92;total CFTR viability 25 µM=73.0
COc1cc(C(=O)N2CCOCC2)cc(OC)c1OC	i	/	/	total CFTR fold 25 µM=1.12;total CFTR viability 25 µM=93.0
O=S(=O)(c1ccc(S(=O)(=O)N(Cc2ccc3c(c2)OCO3)C2CCCC2)cc1)N1CCCC1	i	0.96	98.0
Cc1sc2nc(CN3CCC(C)CC3)nc(N3CCN(c4cnccn4)CC3)c2c1C	i	1.04	99.0
CN(C)c1ccc(/C=C/C(=O)c2cccc(N3CCCC3=O)c2)cc1	i	1	83.0
CC(C)(C)c1nc(SCc2cnn(-c3ccccc3)n2)n[nH]1	i	1.02	85.0
Cn1c(C2CCS(=O)(=O)C2)nn(CN2CCCc3cc(F)c(F)cc32)c1=S (centres undefined)	i	0.94	92.0

Next section, starting with the last 4 of the part before.
SMILES	total CFTR	total CFTR fold 10 ug/mL	total CFTR viability 10 ug/mL	others
Cc1sc2nc(CN3CCC(C)CC3)nc(N3CCN(c4cnccn4)CC3)c2c1C	i	1.04	99.0
CN(C)c1ccc(/C=C/C(=O)c2cccc(N3CCCC3=O)c2)cc1	i	1	83.0
CC(C)(C)c1nc(SCc2cnn(-c3ccccc3)n2)n[nH]1	i	1.02	85.0
Cn1c(C2CCS(=O)(=O)C2)nn(CN2CCCc3cc(F)c(F)cc32)c1=S (centres undefined)	i	0.94	92.0
O=[N+]([O-])c1cc2c(c(CSc3ccccc3F)c1)OCOC2	i	0.71	58.0
CN1CC(=O)N2[C@H](c3ccc4c(c3)OCO4)c3[nH]c4ccccc4c3C[C@@H]2C1=O	i	/	/	total CFTR fold 25 µM=1&0.97;total CFTR viability 25 µM=104.0&81.0
NC(=O)CCSc1nnc2n1CCCCC2	i	1.06	96.0
CC(=O)c1c[nH]c(C(=O)OCC(=O)Nc2sc3c(c2C(N)=O)CCCC3)c1	i	1.07	85.0
N#Cc1c(/C=C/c2ccc3c(c2)OCCO3)cc(-c2cccc(Cl)c2)n2c1nc1ccccc12	i	1.16	99.0
CCc1nc(CSc2nc3sc4c(c3c(=O)n2CCOC)CCCC4)cs1	i	1.16	84.0
COc1ccc(-c2cc(-c3nc4ccccc4[nH]3)c(-c3ccccc3)o2)cc1OC	i	1.03	97.0
C[C@@H]1CN(c2c(F)c(F)c3c(=O)c(C(=O)O)cn(C4CC4)c3c2F)C[C@H](C)N1	i	/	/	total CFTR fold 25 µM=1.02;total CFTR viability 25 µM=88.0
CNC(=O)C1Cc2ccccc2CN1C(=O)c1nn(C)c(=O)c2ccccc12 (centres undefined)	i	0.98	95.0
O=C(Nc1cn[nH]c1)C1CCCCC1	i	0.88	94.0
O=[N+]([O-])c1ccc(S(=O)(=O)NCCSC2CCCC2)cc1	i	0.92	90.0
CCNc1cc(C)ccc1C	i	1	98.0
O=C(c1cc(C(=O)c2ccccc2)c2nc3ccccc3n2c1)c1ccccc1O	1.3	2.39	77.0
Fc1ccc(-c2nc(COc3ccc(Br)cc3)co2)cc1	i	0.97	103.0
Cc1ccc(CN2CCCN(S(=O)(=O)N3CCCCCC3)CC2)cc1	i	0.87	98.0
CC1(c2ccccc2C(F)(F)F)NC(=O)NC1=O (centres undefined)	i	0.96	84.0
COc1cc(C)c(CSCCN2C(=O)CNC2=O)cc1OC	i	1.22	100.0
O=c1c([N+](=O)[O-])c(N2CCC2)nc2ccccn12	i	1.02	107.0
N#Cc1c(NC(=O)CCN2CCN(C(=O)N3CCCCC3)CC2)sc2c1CCCCC2	i	1	105.0
CCN(CC)CCOc1ccc(C(C)C)cc1	i	1.04	95.0
O=C(NCCCN1CCc2ccccc21)C1CC(=O)N(CC(F)(F)F)C1 (centres undefined)	i	0.99	101.0
COc1ccc2[nH]cc(CCNC(C)=O)c2c1	i	/	/	total CFTR fold 25 µM=1.04;total CFTR viability 25 µM=85.0
O=C1C(=O)N(CN2CCC(CN3C(=O)c4ccccc4C3=O)CC2)c2cc3c(cc21)OCCO3	i	0.91	101.0
Cc1ccc(CNCC(C)c2ccccc2)cc1 (centres undefined)	i	0.91	113.0
Cn1c(=S)[nH]c2cc3c(cc2c1=O)OCCCO3	i	0.98	100.0
S=P(N1CC1)(N1CC1)N1CC1	i	/	/	total CFTR fold 25 µM=0.93;total CFTR viability 25 µM=89.0
Cn1c(SCC(=O)N2N=C(c3ccco3)CC2c2ccco2)nnc1C1CCS(=O)(=O)C1 (centres undefined)	i	1.05	100.0
CC(C(=O)NC1CCCCCC1)N1CCN(C(C)C(=O)NC2CC2)CC1 (centres undefined)	i	1.06	95.0
O=[N+]([O-])c1cc(S(=O)(=O)C(F)(F)F)ccc1NCC(O)c1ccccc1F (centres undefined)	i	0.79	90.0
CC1CCN(Cc2nc3ccsc3c(=O)[nH]2)CC1	i	1	101.0
CN(Cc1ccc2c(c1)OCCO2)S(=O)(=O)c1ccc(Cl)s1	i	0.99	102.0
CC(C)N=C(N)/N=C(\N)Nc1ccc(Cl)cc1	i	/	/	total CFTR fold 25 µM=1.06;total CFTR viability 25 µM=92.0
Clc1ccc(-c2nn(-c3ccccc3)cc2CNCCn2ccnc2)cc1	i	0.91	89.0
CC(N)C(=O)NC(C)(C)C (centres undefined)	i	0.98	94.0
O=C1OC(c2cccc([N+](=O)[O-])c2)/C(=C(\O)c2ccccc2)C1=O (centres undefined)	i	0.94	77.0
CC1=C(C(=O)OCc2ccccc2)C(c2ccccc2OC(F)F)NC(=S)N1 (centres undefined)	i	0.92	78.0
CC(C)(C)C(=O)N1CCC(C(=O)Nc2nc(-c3ccc[nH]3)cs2)CC1	i	1.01	90.0
CCCCNS(=O)(=O)c1ccc(S(=O)(=O)C(F)F)cc1	i	1.05	90.0
CC1CCN(Cc2nc3sc4c(c3c(=O)n2CC#N)CCCC4)CC1	i	1	99.0
O=C(O)/C=C/c1nccs1	i	0.96	100.0
Cc1noc(COC(=O)c2ccc3c(c2)C(=O)N(C2CCCCC2)C3=O)n1	i	0.97	104.0
Clc1ccc(-n2nnnc2SCCCc2nc3ccccc3o2)cc1	i	0.85	84.0
CC(NC(=O)c1cc(Cl)c[nH]1)C1CC2CCC1C2 (centres undefined)	i	0.88	69.0
CCOC(=O)c1c(C)[nH]c(C(=O)C(C)OC(=O)c2nc(SC)ncc2Cl)c1C (centres undefined)	i	0.86	93.0
Cc1cc(O)cc(C)c1Cl	i	/	/	total CFTR fold 25 µM=0.91;total CFTR viability 25 µM=95.0
COC(=O)C1(NS(=O)(=O)c2ccc(C)cc2C)CCCCC1	i	1.12	98.0
O=S(=O)(Nc1cc(Cl)ccc1N1CCOCC1)c1ccc(Cl)cc1	i	0.91	75.0
CSc1cccc(N2C(=O)CNC2=S)c1	i	1.02	85.0
CCC(C)[C@H]1O[C@]2(C=C[C@@H]1C)C[C@@H]1C[C@@H](C/C=C(\C)[C@@H](OC3C[C@H](OC)C(O[C@H]4C[C@H](OC)[C@@H](NC(C)=O)[C@H](C)O4)[C@H](C)O3)[C@@H](C)/C=C/C=C3\CO[C@@H]4[C@H](O)C(C)=C[C@@H](C(=O)O1)[C@]34O)O2 (some centres undefined)	1.19	/	/	total CFTR fold 25 µM=1.62;total CFTR viability 25 µM=60.0
CCCC1(CCC)NC(=O)N(CC(=O)c2cc(C)ccc2C)C1=O	i	1.02	93.0
O=[N+]([O-])c1cc(S(=O)(=O)N2CCOCC2)ccc1-n1nnc2ccccc21	i	0.99	108.0
CC1(C2CC2)NC(=O)N(Cc2nc(-c3ccc(Cl)cc3)no2)C1=O (centres undefined)	i	0.92	90.0
CSCc1nnc(Sc2ncnc3sc4c(c23)CCC(C)C4)o1 (centres undefined)	i	1.07	97.0
Cc1ccc(S(=O)(=O)Nc2ccc(S(=O)(=O)NC3=NCCC3)cc2)s1	i	1.13	100.0
CC1CCCC(C)N1C(=O)CN1CCC(C(N)=O)CC1 (centres undefined)	i	1.02	104.0
CCCCC(=O)O[C@H]1CCC2C3CCc4cc(O)ccc4C3CC[C@@]21C (some centres undefined)	i	/	/	total CFTR fold 25 µM=0.89;total CFTR viability 25 µM=98.0
CO[C@H]1/C=C/O[C@@]2(C)Oc3c(C)c(O)c4c(O)c(c(C=NN5CCN(C)CC5)c(O)c4c3C2=O)NC(=O)/C(C)=C\C=C\C(C)[C@H](O)[C@@H](C)[C@@H](O)[C@@H](C)[C@@H](OC(C)=O)[C@@H]1C (some centres undefined)	2.35	/	/	total CFTR fold 25 µM=1.52;total CFTR viability 25 µM=86.0
CC(=O)Nc1nc(C(=O)Nc2nncs2)cs1	i	0.92	90.0
CCOC(=O)C1CCCN(CN2C(=O)NC3(CCCCC3C)C2=O)C1 (centres undefined)	i	1.23	91.0
COc1c(C)c2c(c(O)c1C/C=C(\C)CCC(=O)OCCN1CCOCC1)C(=O)OC2	i	/	/	total CFTR fold 25 µM=0.98&0.92&0.95;total CFTR viability 25 µM=89.0&83.0&79.0

(listing goes on)
SMILES	total CFTR	total CFTR fold 10 ug/mL	total CFTR viability 10 ug/mL	others
O=C1NC2=C(C(=O)N(CCCO)C2)C(c2ccc(Cl)cc2)N1 (centres undefined)	i	1.01	98.0
COc1ccc(OC)c(C2CCCN2Cn2ncn(-c3ccccc3)c2=S)c1 (centres undefined)	i	1.09	118.0
Cc1nc(NCCCS(N)(=O)=O)c2c(-c3cccs3)csc2n1	i	0.78	86.0
CC(C)NC[C@H](O)COc1cccc2ccccc12	i	/	/	total CFTR fold 25 µM=1.01&1.13;total CFTR viability 25 µM=104.0&104.0
CN1CCN(CCCN2c3ccccc3Sc3ccc(C(F)(F)F)cc32)CC1	i	/	/	total CFTR fold 25 µM=0.58&0.6;total CFTR viability 25 µM=2.0&3.0
C#CCOc1ccccc1CNCc1ccc(C)cc1	i	1.05	102.0
Cc1ccc(-c2c3c(nc4sc5c(c24)CCC5)-c2ccccc2OC3)cc1	i	1.09	98.0
CC(C)NCC(O)c1cc(O)cc(O)c1 (centres undefined)	i	/	/	total CFTR fold 25 µM=1.28;total CFTR viability 25 µM=108.0
Cc1noc(C)c1S(=O)(=O)N1CC(C)CC(C)C1 (centres undefined)	i	1	97.0
CN/C(=C\[N+](=O)[O-])NCCSCc1ccc(CN(C)C)o1	i	/	/	total CFTR fold 25 µM=1&1.03;total CFTR viability 25 µM=87.0&92.0
c1cc(CCSc2nnc(NC3CC3)s2)ccn1	i	1.03	96.0
O=C(NC1CC1)C(=O)N1CCNCC1	i	1.03	103.0
O=C(NC1=NCCS1)c1ccc2c(c1)OCCCO2	i	1.14	100.0
COc1ccccc1CSc1nnc(-c2ccc(OC)c(OC)c2)o1	i	0.92	87.0
COC(=O)c1c(C)[nH]c(C(=O)C(C)Sc2nnnn2C(C)C)c1C (centres undefined)	i	1.01	92.0
Cc1nc(NC(=O)CCN2C(=O)NC3(CCCC3)C2=O)sc1C	i	1.01	105.0
Cn1c(Sc2ncnc3scc(-c4ccccc4)c23)nnc1-c1ccccc1F	i	0.89	98.0
Cc1ccc(S(=O)(=O)N2CCN(Cn3nc(C(F)(F)F)n(C)c3=S)CC2)cc1	i	1.09	106.0
C=C(CC)C(=O)c1ccc(OCC(=O)O)c(Cl)c1Cl	i	/	/	total CFTR fold 25 µM=0.96&0.95;total CFTR viability 25 µM=97.0&102.0
CCc1sc(C(=O)NC(C)C)cc1C	i	1.04	94.0
O=C1NC2(CCCCC2)C(=O)N1CN1CCN(Cc2ccc3c(c2)OCO3)CC1	i	1.06	107.0

Retrieved one by one from above, 4 records:
SMILES	total CFTR	total CFTR fold 10 ug/mL	total CFTR viability 10 ug/mL	others
Cc1noc(C)c1S(=O)(=O)N1CC(C)CC(C)C1 (centres undefined)	i	1	97.0
CCc1sc(C(=O)NC(C)C)cc1C	i	1.04	94.0
C=C(CC)C(=O)c1ccc(OCC(=O)O)c(Cl)c1Cl	i	/	/	total CFTR fold 25 µM=0.96&0.95;total CFTR viability 25 µM=97.0&102.0
O=C(NC1=NCCS1)c1ccc2c(c1)OCCCO2	i	1.14	100.0
